Assay outcomes deposited in PubChem BioAssay by several laboratories.
Mtb growth: M. tuberculosis H37Rv growth inhibitors, H37Rv strain (AID 1626); M. tuberculosis H37Rv growth inhibition; higher % means a stronger effect; inhibition, % at 10 µM, or IC50 in µM where a hit was titrated; 220,000 compounds, 0.95% hits;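 active = confirmed in a dose series; inconclusive = inhibition above 80% but not taken into the dose series; inactive = below 80% or under 30% at every dose of the series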;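 also: bacteria incubated seven days before Alamar blue readout; 0% = bacteria only wells and 100% = bacteria with antibiotic wells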
Mtb bLac sens: beta-lactam sensitization of Mtb H37Rv; M. tuberculosis H37Rv growth with meropenem, percent inhibition; hits of this screen are not shown here; inhibition, % at 25 µM; 330,000 compounds, 0.27% hits; AID 434955;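 active = about 74% or more and at least 40 points above the plate without the antibiotic, then above 30% in a dose series; inconclusive = first-round hits that could not be retested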;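 also: growth measured after seven days incubation then overnight dye step; 0% = bacteria only wells and 100% = bacteria with antibiotic; twin plates without the antibiotic show which effects depend on it; some results filed as inactive read as strong as hits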
Arbovirus inh: arbovirus infection inhibition | arbovirus infection cell-based antiviral screen | inhibition, % at 10 µM | 200,000 compounds, 0.37% hits | AID 1251;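 active = inhibition from about 30%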;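 also: bluetongue infection of BSR cells; cell survival read as ATP light after 72 h; 0% = infected wells without compound and 100% = uninfected wells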
YopH inh: YopH (Yersinia) phosphatase inhibition; fluorescence Ex485/Em525; inhibition, %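 (about 10 µM by stock and volumes)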; 140,000 compounds, 0.16% hits; AID 898;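 active = inhibition of 50% or more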;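 also: controls were vehicle for no effect and minimum signal wells for full effect; inactives centre near -20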
RecA splice inh: inhibitors of M. tuberculosis RecA intein splicing. P9WHJ3. 290,000 compounds, 0.75% hits. inhibition, %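 (about 9 µM by stock and volumes)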. cell-free RecA intein splicing, fluorescence; in the data active = inhibition above about 30%; inconclusive = no clear call, values can overlap the other calls;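 also: 0% = vehicle wells and 100% = reference inhibitor control wells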
Target sequence (P9WHJ3 whole entry, looked up, canonical isoform): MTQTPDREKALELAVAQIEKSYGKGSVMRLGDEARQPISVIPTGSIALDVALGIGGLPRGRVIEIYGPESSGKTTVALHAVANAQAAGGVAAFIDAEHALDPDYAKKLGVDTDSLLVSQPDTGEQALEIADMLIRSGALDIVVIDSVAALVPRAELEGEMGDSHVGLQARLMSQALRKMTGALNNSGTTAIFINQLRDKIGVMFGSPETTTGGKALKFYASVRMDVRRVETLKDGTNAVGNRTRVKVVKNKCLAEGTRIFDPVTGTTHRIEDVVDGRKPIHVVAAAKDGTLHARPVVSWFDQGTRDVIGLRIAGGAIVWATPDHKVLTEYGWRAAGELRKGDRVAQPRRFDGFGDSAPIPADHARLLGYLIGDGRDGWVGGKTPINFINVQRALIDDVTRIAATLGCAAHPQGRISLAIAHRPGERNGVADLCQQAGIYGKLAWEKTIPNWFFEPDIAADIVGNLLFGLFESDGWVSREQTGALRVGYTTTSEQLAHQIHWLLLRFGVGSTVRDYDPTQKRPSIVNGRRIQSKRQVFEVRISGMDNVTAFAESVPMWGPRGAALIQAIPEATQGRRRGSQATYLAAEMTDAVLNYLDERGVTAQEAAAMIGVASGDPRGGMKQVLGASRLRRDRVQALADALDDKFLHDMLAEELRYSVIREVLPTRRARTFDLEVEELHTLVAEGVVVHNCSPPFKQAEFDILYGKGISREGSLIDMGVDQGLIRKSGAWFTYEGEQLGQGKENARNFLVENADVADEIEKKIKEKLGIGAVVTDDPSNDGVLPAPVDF
Arbovirus inh repeat: further read-out of Arbovirus inh, marked with its call; inhibition, %; measured here: 10K subset replicate screen; many hits read low in the repeat;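 first of two repeat runs on a subset; 0% = infected and 100% = uninfected wells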
* hit, by the source's call; ? = inconclusive; . = not tested or not shown. Some of the compounds tested (hit frequency here may not be typical).

The first two entries, to show the layout:
SMILES	Mtb growth	Mtb bLac sens	Arbovirus inh	YopH inh	RecA splice inh	others
NC(=O)CN1C(=O)NC2(CCOc3ccccc32)C1=O (stereo not given)	.	4	.	.	-0.4
CC(C)CCNC(=O)COC(=O)/C=C/c1ccc2ccccc2n1	?	100	4	.	5.8

Main list (from the top)
SMILES	Mtb growth	Mtb bLac sens	Arbovirus inh	YopH inh	RecA splice inh	others
NC(=O)CN1C(=O)NC2(CCOc3ccccc32)C1=O (stereo not given)	.	4	.	.	-0.4
CC(C)CCNC(=O)COC(=O)/C=C/c1ccc2ccccc2n1	?	100	4	.	5.8
CC(=O)/C(=N\Nc1ccc(Cl)cc1Cl)Sc1nnc(-c2ccccc2)n1-c1ccccc1	14%	-4	5	-21	-5.2
O/C=c1\ccc2cccc3nc(C(F)(F)F)nc1c23	.	7	.	.	-1.4
COc1ccc(CNC(=S)Nc2ccccc2F)cc1	.	-6	.	.	0.5
COc1ccccc1C(=O)Nc1ccc(-c2nnn(CC(=O)NCc3ccco3)n2)cc1	-6%	-4	.	.	-0.4
COc1ccc(NC(=O)CN2C(=O)COc3ccc(S(=O)(=O)N4CCOCC4)cc32)cc1	.	7	.	.	-4.0
COc1ccc(NC(=O)c2ccc(CN3CCc4ccccc4C3)cc2)cc1OC	.	-4	.	.	2.3
Cc1ccc(NC(=O)CN2C(=O)S/C(=C\c3ccc(-c4cccc(C(=O)O)c4C)o3)C2=O)cc1	-10%	-5	0	-23	-30
CC(=O)NC1C(=O)N(CCN2CCOCC2)c2ccc(C)cc21 (stereo not given)	.	-7	.	.	65*
NC(N)=NCCCc1cn(CC(=O)N2CCNCC2)nn1	-15%	1	3	.	-2.2
O=C1CCC(C(=O)N2CCN(c3ccc(F)cc3)CC2)CN1CC1CCCCC1 (stereo not given)	.	0	.	.	-0.5
CC(C)(C)NC(=O)C12CC3CC(CC(Cl)(C3)C1)C2	-4%	-4	3	-18	-0.4
CCOc1ccc(Cc2c(Cl)nc(N)nc2Cl)cc1	-5%	?	0	-26	0.1
C(=N\Nc1ccccc1)/c1ccc(N2CCOCC2)cc1	?	98	-39	-24	9.9
CCOc1cnn(-c2ccccc2)c(=O)c1Cl	.	-2	.	.	-2.6
CN1CCN(CCCNC(=O)CCc2nnc3n(Cc4ccccc4Cl)c(=O)c4ccccc4n23)CC1	.	0	.	.	-6.4
CN(CCN1CCOCC1)C(=O)CC1C(=O)NCCN1Cc1ccccc1C(F)(F)F (stereo not given)	.	7	.	.	-5.9
Cc1ccc(-c2nnn(CC(=O)N(Cc3cccs3)C(C(=O)NC(C)(C)C)c3ccc(C)o3)n2)o1 (stereo not given)	-2%	6	0	16	-0.1
Cc1ccccc1-c1nnn(C/C(N)=N/O)n1	.	-2	3	.	-0.2
O=C(c1cc2ccccc2oc1=O)N(Cc1ccccc1F)C1CCS(=O)(=O)C1 (stereo not given)	.	-7	.	.	1.6
Cc1csc(NC(=O)CCS(=O)(=O)c2ccc(Br)cc2)n1	5%	12	6	-6	-1.5
COc1ccc(N(Cc2ccccc2)S(=O)(=O)c2cc(C(=O)O)ccc2Cl)cc1	.	-10	.	.	5.8
Cc1ccc(C(=O)N(CCc2ccccc2)Cc2ccccc2)cc1S(=O)(=O)N1CCCCC1	.	-5	.	.	8.3
Cc1ccc2cc(C3CC(c4ccco4)=NN3S(C)(=O)=O)c(Cl)nc2c1 (stereo not given)	3%	1	.	.	-0.7
Further records follow.
SMILES	Mtb growth	Mtb bLac sens	Arbovirus inh	YopH inh	RecA splice inh	others
O=C1CCc2cc(S(=O)(=O)NCc3ccccc3)cc3c2N1CC3	.	-12	.	.	1.2
COc1cccc(NC(=O)CCSc2ccc3ccccc3n2)c1	29%	11	13	-17	-2.6
COC(=O)C1=C(C)N(CCc2ccc(OC)c(OC)c2)C(=O)/C1=C\c1ccc(O)cc1	-1%	-4	-8	-26	-0.9
O=S(=O)(Nc1nc2c(s1)CCCC2)c1ccc(Br)cc1	-3%	-10	28	-40	4.3
CC1(CCBr)C(=O)N(c2ccccc2)c2ccccc21 (stereo not given)	.	2	.	.	3.5
NNC(=O)/C(=C\c1ccco1)NC(=O)c1ccco1	.	-1	.	.	-0.9
CCC(=O)N/N=C(\C)CC(=O)Nc1ccc2c(c1)OCCO2	-1%	0	7	.	1.7
COc1cc(NC(=O)C2COc3ccccc3O2)c(OC)cc1Cl (stereo not given)	7%	-2	16	-11	-0.1
Cc1ccc(C(=O)COc2nc(C)nc3ccccc23)cc1	5%	11	15	.	-0.6
CC(=O)Nc1ccc(S(=O)(=O)NCC(=O)OCC(=O)NCc2ccco2)cc1	.	-3	.	.	0.9
Cc1cccc(NC(=O)CCc2nc3sc4c(c3c(=O)[nH]2)CCCC4)c1	.	-14	.	.	-2.4
COc1ccc(CNC(=O)c2cc3c(=O)[nH]c4ccccc4c3n2C)cc1	1%	-2	0	.	-0.2
CC(=O)N1CCCc2cc(S(=O)(=O)N3CCCC3)ccc21	.	-2	.	.	-0.9
Brc1ccc2nc(-c3cccs3)c(NCC3CCCO3)n2c1 (stereo not given)	8%	6	-6	.	-4.9
O=C(NC(=S)Nc1cccc2cccnc12)c1cccs1	?	94	-4	.	1.2
O=C(N=Nc1c(O)[nH]c2ccccc12)c1ccc(CN2CCOCC2)cc1	6%	-2	2	.	2.8
C=CCn1cc(C(=O)N2CCN(C)CC2)c(=O)c2cc(S(=O)(=O)N(CC)CC)ccc21	.	-10	.	.	0.2
CC(=O)C1=C(C)NC(SCC(N)=O)=C(C#N)C1c1cccs1 (stereo not given)	-2%	4	10	-10	-4.4
COc1ccc(C(C#N)N2N=C(C)CC2(C)C)cc1OC (stereo not given)	3%	-1	3	-9	0.7
Cc1ccc(-n2c(Cc3cccn3C)nnc2SCC(=O)N2CCc3ccccc32)cc1	11%	-5	3	-5	7.2
Cc1nc(CN(C)C(=O)c2cc(COc3c(F)cccc3F)on2)cs1	0%	2	1	.	0.8
Cc1nc(C(F)(F)F)ccc1C(=O)Nc1ccc2ccccc2n1	.	3	.	.	1.3
COc1ccc([C@H]2[C@H]3C=CC[C@@H](C)[C@@H]3C(=O)N2Cc2ccccc2)cc1Cl	1%	1	.	.	5.0
COc1ccccc1NS(=O)(=O)c1cccc(C(=O)NNC(=O)c2ccc(O)c(Cl)c2)c1	.	5	.	.	-4.0
Cc1cc(N2CCOCC2)nc(C(C)C)n1	5%	8	-2	.	-1.4

Retrieved by structure from above (six):
SMILES	Mtb growth	Mtb bLac sens	Arbovirus inh	YopH inh	RecA splice inh	others
COC(=O)C1=C(C)N(CCc2ccc(OC)c(OC)c2)C(=O)/C1=C\c1ccc(O)cc1	-1%	-4	-8	-26	-0.9
COc1cccc(NC(=O)CCSc2ccc3ccccc3n2)c1	29%	11	13	-17	-2.6
COc1ccc([C@H]2[C@H]3C=CC[C@@H](C)[C@@H]3C(=O)N2Cc2ccccc2)cc1Cl	1%	1	.	.	5.0
CC1(CCBr)C(=O)N(c2ccccc2)c2ccccc21 (stereo not given)	.	2	.	.	3.5
COc1ccc(C(C#N)N2N=C(C)CC2(C)C)cc1OC (stereo not given)	3%	-1	3	-9	0.7
O=C(N=Nc1c(O)[nH]c2ccccc12)c1ccc(CN2CCOCC2)cc1	6%	-2	2	.	2.8

Later entries
SMILES	Mtb growth	Mtb bLac sens	Arbovirus inh	YopH inh	RecA splice inh	others
Cc1cc(Nc2ccc(N3CCC(C)CC3)cc2)n2ncnc2n1	12%	12	0	-27	-0.3
COC(=O)c1ccc(NC(=S)N(Cc2cccnc2)Cc2ccco2)cc1	-9%	3	9	.	-1.3
COC(=O)c1cc(NC(=O)c2c(F)c(F)c(F)c(F)c2F)cc(C(=O)OC)c1	8%	59	12	-19	8.6
Nc1c(C(=O)Nc2ccc(S(=O)(=O)N3CCCC3)cc2)sc2nc3ccc(OC(F)(F)F)cc3cc12	8%	2	-23	-8	-7.7
CON(C)c1nc(OCCNC(=O)OCc2ccc(Cl)cc2Cl)nc(N(C)C)n1	-9%	1	4	-20	2.4
O=C(O)C1CCCCC1C(=O)NCc1cn2ccccc2n1 (stereo not given)	3%	3	1	.	-0.8	Arbovirus inh repeat=1
CSCC[C@H](NC(=O)COc1ccc(Cl)cc1)c1nc2ccccc2[nH]1	7%	0	21	-37	3.6
C=CCSC1=N/C(=C\c2sccc2C)C(=O)S1	-6%	3	-7	4	6.3
CN(C)/C=N/C(=S)Nc1ccccc1	2%	-7	-1	.	0.7
Cc1cc2nc(C)n3c4ccccc4nc3n2n1	-6%	-28	-3	-35	0.2
CC(C)C(NC(=O)COc1ccc2ccccc2c1)C(=O)N/N=C/C=C/c1ccccc1 (stereo not given)	1%	1	-3	-16	-0.5
OC(Cn1ccnc1)c1ccc(Cl)cc1Cl (stereo not given)	-10%	-5	1	-25	-4.4
COc1cccc(CN(C(=O)c2ccco2)C2CCS(=O)(=O)C2)c1 (stereo not given)	.	4	.	.	2.8
CC1CCCN(C(=O)c2ccc(S(=O)(=O)Nc3ccccc3Cl)cc2)C1 (stereo not given)	.	-1	.	.	-1.9
CCN(Cc1cc2cc(C)ccc2[nH]c1=O)C(=O)c1cccc(OC)c1	.	6	7	1	0.2
CCOc1ccc(-n2c(O)c(C=Nc3ccc(N(CC)CC)cc3)c(=O)[nH]c2=O)cc1	-1%	6	-9	-42	-3.5
Cn1nnnc1SCC(=O)NCc1ccc2c(c1)OCO2	-4%	-3	8	.	-5.2
Cn1nccc1C(=O)N1CCN(c2ccccc2F)CC1	.	-4	.	.	-0.3
COc1cc(C(=O)Oc2ccc(C(=S)N3CCOCC3)cc2)cc(OC)c1OC	.	8	.	.	0.8
CCCCNC(=O)N1CCCN(c2ccc(C#N)cn2)CC1	.	-2	.	.	0.3
Cc1c(S(=O)(=O)Nc2ccc(Br)cc2)c(=O)n(C)c(=O)n1C	.	-1	.	.	-7.1
Cc1cc(C(=O)O)n(C(C)(C)C)n1	-6%	-4	.	.	-5.1
CC1CCC2(CC1)NC(=O)N(CC(=O)NCc1ccc3c(c1)OCO3)C2=O (stereo not given)	-3%	-4	.	.	-2.3
COc1ccc(CNC(=O)c2cnccn2)cc1	-1%	7	-3	12	2.1
CCOC(=O)c1ccc(NC(=O)CSc2nnc(C3CC3)n2CC)cc1	-8%	5	6	-1	-1.8
Next part.
SMILES	Mtb growth	Mtb bLac sens	Arbovirus inh	YopH inh	RecA splice inh	others
O=C(Cn1ncc2c1-c1ccccc1OC2)Nc1cccc(Cl)c1	10%	15	6	-15	-2.4
COc1ccc(C(C(=O)NCc2ccccc2)N(Cc2ccc3c(c2)OCO3)C(=O)c2cnccn2)cc1 (stereo not given)	3%	4	0	-16	-2.1
C/C(=N\NC(=O)c1ccc(NS(=O)(=O)c2cccs2)cc1)c1ccc2ccccc2c1	9%	5	-28	-14	-3.7
COC(=O)c1ccc2c(=O)n(CCN3CCOCC3)c(SCC(=O)Nc3ccc(C)cc3)nc2c1	.	7	.	.	-1.4
O=C(NN1C(=O)C2C3C=CC(O3)C2C1=O)c1ccncc1 (stereo not given)	77%	97	4	-5	-0.8
O=C(O)CC(C(=O)O)c1ccc(OCCCCOc2ccc(C(CC(=O)O)C(=O)O)cc2)cc1 (stereo not given)	.	-3	.	.	-1.3
COc1cc2c(C(=O)NCc3ccccn3)cn(C)c(=O)c2cc1OC	-1%	-5	0	-20	6.8	Arbovirus inh repeat=9
Cc1ccc(OCC(=O)Nc2ccc(S(=O)(=O)Nc3ccccn3)cc2)cc1	-8%	-3	5	.	-0.9
Cc1cc(N2CCCCCC2)nc2ccccc12	3%	0	-3	-6	-0.3
CCOC(=O)C/C(N)=N/NC(=O)c1ccc(Cl)cc1Cl	-4%	-4	6	.	8.4
CC(C)(C)NC(=O)CSc1nncn1NCc1cccc2ccccc12	-2%	-8	6	4	1.1
COc1ccc(CNCCc2ccc3c(c2)OCO3)c(OC)c1OC	.	-6	.	.	5.1
Cc1ccc(-n2c(N)c(C(=O)N3CCCCC3)sc2=S)cc1	-12%	-4	2	-22	-2.9
CCOC(=O)N1CCC(N2C(=O)c3ccc(C(=O)NCc4ccc(F)cc4)cc3C2=O)CC1	-7%	3	1	-21	.	Arbovirus inh repeat=0
O/N=C/c1cn(-c2ccccc2)nn1	0%	-13	3	.	-0.6
C=CCN(c1ccc(C(=O)NCCSc2ccccc2)cc1)S(C)(=O)=O	.	-27	.	.	1.5
CC(/C=C/c1ccccc1)=N/NC(=O)CCC(=O)Nc1ccccc1C	-1%	5	-15	-19	-2.4
Cc1ccccc1C(=O)Nc1ccnn1C1CCN(CC2CC=CCC2)CC1 (stereo not given)	.	-1	.	.	0.2
COc1ccc(NC(=O)c2cccc(N3C(=O)c4cccc([N+](=O)[O-])c4C3=O)c2)cc1	.	-1	.	.	-0.7
Cc1ccc(NC(=O)CN(C)CC(=O)Nc2ccc(F)c(Cl)c2)cc1	2%	2	6	.	2.7
CCCN(CCC)CCNC(=O)C1CCN(S(=O)(=O)c2cccc3nsnc23)CC1	.	-4	.	.	0.1
